Compound activity deposited in PubChem BioAssay by National Center for Advancing Translational Sciences (NCATS).
Menin MLL FP FL – displaces fluorescein MLL peptide from human menin | Fluorescence polarization, fluorescein-MLL peptide displacement from menin | FP activity change, % at 61.4 µM | 290,000 tested, under 10 active | AID 1766; inconclusive = falling polarisation curve, or a change in total fluorescence; inactive = total fluorescence flat and polarisation flat or rising; no compound was filed as active; the % refers to the polarisation; negative = inhibition;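 also: % of control where 0% means no effect; inhibitors lower the polarisation; unlabelled MLL peptide was the positive control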
ClpP mod – qHTS Assay for Activators of ClpP | purified B. subtilis ClpP, FRET peptide cleavage, 20 min | Potency, µM (titrated, usually from 57.5 µM), for inactives: at the highest dose activity change, negative = active | 340,000 tested, 1.9% active; active = well fitted falling curve with a large enough effect; inconclusive = small, poorly fitted or top-dose-only effect; inactive = no such curve, though single readings can be large or run the other way; also: potency is read from the fitted curve at half-maximal effect; the source files actives as falling curves though it sought activators and does not explain the sign; nearly all actives have a fitted effect of over 65% in size; many hits overshoot -100%
Target sequence (P80244 whole entry, looked up): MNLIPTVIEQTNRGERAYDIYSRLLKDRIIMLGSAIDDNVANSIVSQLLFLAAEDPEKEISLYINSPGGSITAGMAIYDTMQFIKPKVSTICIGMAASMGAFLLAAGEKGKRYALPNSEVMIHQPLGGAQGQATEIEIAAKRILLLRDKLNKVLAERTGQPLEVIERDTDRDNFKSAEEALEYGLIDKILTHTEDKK
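Purified B. subtilis ClpP, 10 microg/mL final in Tris/HCl pH8 with KCl, BSA, glycerol and Tween-20, cleaved an Abz/nitrotyrosine-quenched decapeptide. Fluorescence (ex 320, em 430) was read at 0 and 20 min at room temperature. Delta was normalized to 5.8 microM ADEP and DMSO/no-enzyme controls.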
gsp agonist – agonists of gsp mutant (McCune-Albright syndrome). gsp mutant cells, cAMP HTRF, 30 min; control for the full effect not named in the record. 340,000 tested, 0.13% active. AID 624287. Potency, µM (doses to about 76.9 µM), for the others: top-dose activation (cAMP increase), actives largely listed as activators; active = well fitted activation curve with a large enough effect; inconclusive = small, poorly fitted or top-dose-only effect, or another doubt; inactive = no such curve, though single readings can be large or run the other way; cell line not stated here;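 also: phosphodiesterase inhibitor Ro 20-1724 added with compounds to block cAMP breakdown; potency is read from the fitted curve at half-maximal effect; nearly all actives have a fitted effect of over 60% in size; about a fifth of the inactives were tested at one dose only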
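Cells stably selected in G418 were plated at 2000/well, grown 16-24 hr, then given compounds in DMSO with the PDE inhibitor […] (300 uM solution added) for 30 min at 37C; cAMP was read by HTRF.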
gsp antag – antagonists of gsp mutant (McCune-Albright syndrome); gsp-mutant cells, cAMP HTRF, 30 min; control for the full effect not named in the record; Potency, µM (titrated, usually from 76.9 µM), without a hit: top-dose activity change, negative = inhibition, most hits filed as inhibitors; 340,000 tested, 0.4% active; active = falling curve of any shape with a large fitted effect; inconclusive = falling curve, mostly with a smaller effect; inactive = flat or rising curve; cell line not stated here;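 also: intracellular cAMP measured with PDE inhibitor Ro 20-1724 present during compound exposure; potency is read from the fitted curve at half-maximal effect; % is scaled to controls: 0 for no effect and ±100 for the full control effect; nearly all actives have a fitted effect of over 65% in size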
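Cells in G418 medium, seeded 16-24 h, 37C; buffer exchange to DPBS + 1 mM CaCl2, 0.5 mM MgCl2, 0.05% BSA; cpds in DMSO + […] (300 uM stock), 30 min 37C; HTRF cAMP detection.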
TRPML1 agonist – human mucolipin-1 channel agonism; Q9GZU1; TRPML1-expressing cells, Ca2+ dye fluorescence, FDSS; host cell line not named in the record; reference of the full effect not given here; activation, % (concentration not given with the values); 410,000 tested, 0.12% active; AID 624414; in the data active = activation above about 50%; inconclusive = about 30% to 50%; inactive = below about 30%; also: 0% is about no effect; the text of the record puts the active cut at 80%
Target sequence (Q9GZU1 whole entry, looked up): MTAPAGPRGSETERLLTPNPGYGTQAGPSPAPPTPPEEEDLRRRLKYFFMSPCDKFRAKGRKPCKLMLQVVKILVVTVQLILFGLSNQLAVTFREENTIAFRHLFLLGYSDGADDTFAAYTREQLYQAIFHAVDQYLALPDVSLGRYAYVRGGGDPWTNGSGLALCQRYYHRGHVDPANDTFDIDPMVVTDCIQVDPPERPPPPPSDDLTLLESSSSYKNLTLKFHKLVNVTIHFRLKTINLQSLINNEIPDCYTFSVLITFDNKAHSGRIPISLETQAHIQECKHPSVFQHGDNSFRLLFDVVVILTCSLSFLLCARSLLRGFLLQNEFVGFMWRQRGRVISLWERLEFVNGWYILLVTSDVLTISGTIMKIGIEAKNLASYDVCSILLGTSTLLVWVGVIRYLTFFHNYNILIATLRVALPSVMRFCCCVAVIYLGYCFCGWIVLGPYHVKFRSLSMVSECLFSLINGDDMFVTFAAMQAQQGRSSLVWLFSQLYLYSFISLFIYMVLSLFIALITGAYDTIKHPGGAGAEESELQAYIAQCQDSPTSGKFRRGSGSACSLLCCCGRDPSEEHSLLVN
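Agonist activity was taken from a 110 s kinetic Ca2+ dye read on the FDSS after pinning compounds onto TRPML1-DL cells. The cells were seeded at 1,500/well with Tet inducer, incubated about 16 h, then dye-loaded at room temperature.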
TRPML1 blocker – inhibitors of human TRPML1 channel; AID 624415; activity change, negative = inhibition, % (test concentration not listed); Q9GZU1; TRPML1-inducible cells, Ca2+ dye fluorescence, FDSS; active compounds read low; inhibition of EC80 agonist-evoked calcium signal; 390,000 tested, 0.02% active; in the data active means activity change below about -50%; inconclusive means about -30% to -50%; inactive means above about -30%;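 also: stimulus is agonist 54-4 at its EC80 concentration; % is scaled to controls: 0 for no effect and ±100 for the full control effect; compound concentration not given in the record; the text of the record puts the active cut at -80%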
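Tet-induced TRPML1-DL cells loaded with Ca8 no-wash calcium dye were read kinetically on FDSS. Compound addition was followed by EC80 agonist 54-4 (4 uM final); inhibition was read over 110 s.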
* hit, by the source's call; ? = inconclusive; . = not tested or not shown; & = joins results of further samples; [ ] = remark or other dose. Some of the compounds tested; count on the stated rates, not on these rows.

Labels used below: A = Menin MLL FP FL; B = ClpP mod; C = gsp agonist; D = gsp antag; E = TRPML1 agonist; F = TRPML1 blocker
SMILES: COc1ccc2c(c1OC)CN1CCc3cc4c(cc3C1C2)OCO4 (configuration not stated)
  A = -2.0 | B = . | C = ? | D = 5% | E = 0.1 | F = 5

SMILES: O=C(N/N=C/c1c(O)n(CCC2=CCCCC2)c(=O)[nH]c1=O)c1ccccc1
  A = 0.2 | B = -19% | C = 20% | D = 2% | E = 1.3 | F = 0

SMILES: CCCCOCCCn1c(N)c(C(=O)OC(C)COC)c2nc3ccccc3nc21 (configuration not stated)
  A = -3.2 | B = ? | C = -2% | D = -9% | E = 0.9 | F = 3

SMILES: Fc1ccc(C(OCCN2CCCC2)c2ccc(F)cc2)cc1
  A = 4.0 | B = -2.3% | C = ? | D = -8% | E = 1.5 | F = 3

SMILES: CCOC(=O)[C@]12Cc3ccsc3[C@H]1N(Cc1ccccc1)C(=O)c1ccccc12
  A = . | B = 2.3%&-1.8% | C = -30% | D = -26% | E = 0.9&0.0 | F = -4

SMILES: Cc1ccsc1CNCCc1ccccc1F
  A = 2.6 | B = 1.1% | C = ? | D = 14% | E = -0.3 | F = -13

SMILES: O=c1[nH]c(=O)n(CCc2ccc(F)cc2)c(O)c1C=NCCCN1CCOCC1
  A = -0.4 | B = -1.9% | C = -29% | D = -2% | E = 0.4 | F = 17

SMILES: NC(=O)CN1CC(c2ccccc2)CC1=O (configuration not stated)
  A = 2.1 | B = -1.4% | C = -44% | D = 5% | E = -0.6 | F = 10

SMILES: O=c1c2ccccc2nc(-c2ccco2)n1-c1ccccc1
  A = 0.7 | B = ? | C = -26% | D = 1% | E = -0.5 | F = -1

SMILES: CC12C=CC(=O)CC1CCC1C2CCC2(C)C(O)C(O)CC12 (configuration not stated)
  A = . | B = . | C = -5% | D = -14% | E = 1.8 | F = -4

SMILES: C=C[C@]1(C)C[C@H]1[C@H](NP(=O)(c1ccccc1)c1ccccc1)c1ccccc1
  A = -2.4 | B = -1.4% | C = 7% | D = 5% | E = 3.1 | F = -6

SMILES: Cc1cccc(C)c1-n1nnnc1C(CCc1ccccc1)N1CCC(n2c(=O)[nH]c3ccccc32)CC1 (configuration not stated)
  A = . | B = 0.7% | C = . | D = . | E = -0.4 | F = 36

SMILES: COc1ccc(CN2CCCC(C(=O)c3cccc(Cl)c3)C2)cc1 (configuration not stated)
  A = -3.8 | B = 0.4% | C = -30%[inhibitor] | D = -13% | E = . | F = .

SMILES: O=C(c1cc(S(=O)(=O)N2CCOCC2)ccc1F)N1CCC2(CC1)OCCO2
  A = -0.8 | B = 0.5% | C = ? | D = 6% | E = -0.2 | F = -1

SMILES: C=CCn1c(O)c(C(C)=NCc2cccnc2)c(=O)[nH]c1=O
  A = 3.7 | B = -2.6% | C = ? | D = 20% | E = -0.6 | F = ?

SMILES: COC(=O)C1=C(c2ccc(F)cc2OCc2ccccc2)C[C@@H]2CC[C@H]1N2C(=O)NCCNC(C)=O
  A = . | B = 0.1% | C = 8% | D = -5% | E = -0.5 | F = -9

SMILES: COc1cccc(NC(=O)c2cccn(Cc3ccccc3C)c2=O)c1
  A = . | B = -9.4% | C = . | D = . | E = 4.7 | F = 21

SMILES: C[C@H]1O[C@@H](O[C@H]2[C@@H](O)C[C@H](O[C@H]3[C@@H](O)C[C@H](O[C@H]4CC[C@@]5(C)[C@H](CC[C@@H]6[C@@H]5CC[C@]5(C)[C@@H](C7=CC(=O)OC7)CC[C@]65O)C4)O[C@@H]3C)O[C@@H]2C)C[C@H](O)[C@@H]1O
  A = 1.4 | B = -1.3% | C = . | D = 4% | E = 1.2 | F = -7

SMILES: Cc1ccc(NC(=O)c2ccc(C)c(S(=O)(=O)N3CCCCC3)c2)nc1
  A = . | B = 1.6% | C = 4% | D = -20% | E = 0.4 | F = -12

SMILES: CSc1cccc(NP2(=O)OCC(C)([N+](=O)[O-])CO2)c1 (configuration not stated)
  A = . | B = -1.9% | C = 17% | D = 1% | E = 0.5 | F = -23

Some of these compounds in order of molar mass, largest number first.
Labels used below: A = Menin MLL FP FL; B = ClpP mod; C = gsp agonist; D = gsp antag; E = TRPML1 agonist; F = TRPML1 blocker
SMILES: C[C@H]1O[C@@H](O[C@H]2[C@@H](O)C[C@H](O[C@H]3[C@@H](O)C[C@H](O[C@H]4CC[C@@]5(C)[C@H](CC[C@@H]6[C@@H]5CC[C@]5(C)[C@@H](C7=CC(=O)OC7)CC[C@]65O)C4)O[C@@H]3C)O[C@@H]2C)C[C@H](O)[C@@H]1O
  A = 1.4 | B = -1.3% | C = . | D = 4% | E = 1.2 | F = -7

SMILES: Cc1cccc(C)c1-n1nnnc1C(CCc1ccccc1)N1CCC(n2c(=O)[nH]c3ccccc32)CC1 (configuration not stated)
  A = . | B = 0.7% | C = . | D = . | E = -0.4 | F = 36

SMILES: COc1ccc(CN2CCCC(C(=O)c3cccc(Cl)c3)C2)cc1 (configuration not stated)
  A = -3.8 | B = 0.4% | C = -30%[inhibitor] | D = -13% | E = . | F = .

Following part.
Labels used below: A = Menin MLL FP FL; B = ClpP mod; C = gsp agonist; D = gsp antag; E = TRPML1 agonist; F = TRPML1 blocker
SMILES: Cc1sc2ncnc(N3CCN(S(=O)(=O)c4ccc(Br)cc4)CC3)c2c1C
  A = . | B = -2.6% | C = ? | D = ? | E = 2.4 | F = 6

SMILES: O=C(Nc1cccc2ccccc12)c1nn(C23CC4CC(CC(C4)C2)C3)cc1Br
  A = 3.2 | B = ? | C = 7% | D = -12% | E = 3.1 | F = 72

SMILES: COC(=O)C1=C(c2cccc(C#N)c2)C[C@@H]2CC[C@H]1N2C(=O)N1CCCCC1
  A = . | B = 0.3% | C = . | D = -4% | E = 0.1 | F = 0

SMILES: COc1cccc(CNC(=O)CCC(=O)N2C[C@H]3C[C@H](C2)c2cccc(=O)n2C3)c1OC
  A = -2.7 | B = -4.7% | C = . | D = -1% | E = . | F = .

SMILES: O=c1[nH]c(=O)n(CC2CCCO2)c(O)c1/C=C1\C=Nc2ccccc21 (configuration not stated)
  A = 8.5&1.8 | B = 1.4% | C = 15%&-7% | D = 1%&-1% | E = 0.6&0.4 | F = -4&21

SMILES: Cc1ccc2c(c1)CC1(CN2C)C(=O)NC(=O)N(c2cccc(C)c2C)C1=O (configuration not stated)
  A = 1.7 | B = -2.7% | C = 7% | D = 1% | E = 0.3 | F = -2

SMILES: NP(=O)(OCC(F)(F)F)Oc1ccc(Cl)cc1 (configuration not stated)
  A = 1.0 | B = -4.6% | C = 27% | D = 7% | E = -1.4 | F = -6

SMILES: CCCCCCn1c(O)c(C=NC2CCCCC2N)c(=O)[nH]c1=O (configuration not stated)
  A = -0.5 | B = -2.6% | C = 3% | D = 0% | E = -0.9 | F = -16

SMILES: C=CCN(CC=C)C(=O)Nc1ccc(OCC)cc1
  A = -0.7 | B = . | C = 7%[15.4 µM] | D = 5% | E = -0.2 | F = 2

SMILES: COC(=O)C1=C(c2ccc(C(C)=O)cc2)C[C@@H]2CC[C@H]1N2C(=O)NCCOc1ccccc1Cl
  A = . | B = -0.8% | C = -15% | D = -7% | E = 0.0 | F = 5

Twelve entries from above, comma-delimited:
molecule,Menin MLL FP FL,ClpP mod,gsp agonist,gsp antag,TRPML1 agonist,TRPML1 blocker
COC(=O)C1=C(c2ccc(F)cc2OCc2ccccc2)C[C@@H]2CC[C@H]1N2C(=O)NCCNC(C)=O,.,0.1%,8%,-5%,-0.5,-9
COc1cccc(NC(=O)c2cccn(Cc3ccccc3C)c2=O)c1,.,-9.4%,.,.,4.7,21
C[C@H]1O[C@@H](O[C@H]2[C@@H](O)C[C@H](O[C@H]3[C@@H](O)C[C@H](O[C@H]4CC[C@@]5(C)[C@H](CC[C@@H]6[C@@H]5CC[C@]5(C)[C@@H](C7=CC(=O)OC7)CC[C@]65O)C4)O[C@@H]3C)O[C@@H]2C)C[C@H](O)[C@@H]1O,1.4,-1.3%,.,4%,1.2,-7
Cc1ccc(NC(=O)c2ccc(C)c(S(=O)(=O)N3CCCCC3)c2)nc1,.,1.6%,4%,-20%,0.4,-12
CSc1cccc(NP2(=O)OCC(C)([N+](=O)[O-])CO2)c1 (configuration not stated),.,-1.9%,17%,1%,0.5,-23
Cc1sc2ncnc(N3CCN(S(=O)(=O)c4ccc(Br)cc4)CC3)c2c1C,.,-2.6%,?,?,2.4,6
O=C(Nc1cccc2ccccc12)c1nn(C23CC4CC(CC(C4)C2)C3)cc1Br,3.2,?,7%,-12%,3.1,72
COC(=O)C1=C(c2cccc(C#N)c2)C[C@@H]2CC[C@H]1N2C(=O)N1CCCCC1,.,0.3%,.,-4%,0.1,0
COc1cccc(CNC(=O)CCC(=O)N2C[C@H]3C[C@H](C2)c2cccc(=O)n2C3)c1OC,-2.7,-4.7%,.,-1%,.,.
O=c1[nH]c(=O)n(CC2CCCO2)c(O)c1/C=C1\C=Nc2ccccc21 (configuration not stated),8.5&1.8,1.4%,15%&-7%,1%&-1%,0.6&0.4,-4&21
Cc1ccc2c(c1)CC1(CN2C)C(=O)NC(=O)N(c2cccc(C)c2C)C1=O (configuration not stated),1.7,-2.7%,7%,1%,0.3,-2
NP(=O)(OCC(F)(F)F)Oc1ccc(Cl)cc1 (configuration not stated),1.0,-4.6%,27%,7%,-1.4,-6

Further compounds
Labels used below: A = Menin MLL FP FL; B = ClpP mod; C = gsp agonist; D = gsp antag; E = TRPML1 agonist; F = TRPML1 blocker
SMILES: CC(C)(C)NC(=S)N1CCn2cccc2C1c1cccnc1 (configuration not stated)
  A = -3.9 | B = . | C = 29%[15.4 µM] | D = 3% | E = -0.5 | F = -11

SMILES: Cc1cccc(-n2c(=O)c3c(c4cc(C)ccc4n3C)n(CC(=O)Nc3ccc(C)c(C)c3)c2=O)c1
  A = . | B = ? | C = . | D = . | E = 1.6 | F = 33

SMILES: CNC(=O)Nc1ccc(C(=O)N/N=C\C23CC[C@@H](O)CC2(O)CC[C@@H]2[C@@H]3CCC3(C)C(C4=CC(=O)OC4)CCC23O)cc1 (some centres not stated)
  A = -0.4 | B = -1.7% | C = 2% | D = -8% | E = . | F = .

SMILES: CN1CCC(O)(c2ccc(Cl)cc2)C(C(=O)c2ccc(Cl)cc2)C1 (configuration not stated)
  A = -2.9 | B = -0.4% | C = ? | D = 10% | E = 0.3 | F = -8

SMILES: Cc1ccc(-c2ccc(=O)n(CCC(=O)N3CCC4(CC3)OCCO4)n2)cc1
  A = -1.4 | B = ? | C = -5% | D = 5% | E = 0.0 | F = 0
